Screening results: PubChem, several laboratories
Mtb H37Rv: M. tuberculosis H37Rv growth inhibitors, H37Rv strain (AID 1626); inhibition, % at 10 µM, or IC50 in µM where a hit was titrated; 220,000 tested, 0.95% active; M. tuberculosis H37Rv growth inhibition; higher % means a stronger effect;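 active = confirmed in a dose series; inconclusive = inhibition above 80% but not taken into the dose series; inactive = below 80% or under 30% at every dose of the series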;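 note: bacteria incubated seven days before Alamar blue readout; 0% = bacteria only wells and 100% = bacteria with antibiotic wells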
YopH inh: YopH (Yersinia) phosphatase inhibition | fluorescence Ex485/Em525 | inhibition, %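 (about 10 µM by stock and volumes)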 | 140,000 tested, 0.16% active;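 active = inhibition of 50% or more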;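 note: controls were vehicle for no effect and minimum signal wells for full effect; inactives centre near -20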
Mtb bLac sens: beta-lactam sensitization of Mtb H37Rv; 330,000 tested, 0.27% active; AID 434955; inhibition, % at 25 µM; M. tuberculosis H37Rv growth with meropenem, percent inhibition; hits of this screen are not shown here;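 active = about 74% or more and at least 40 points above the plate without the antibiotic, then above 30% in a dose series; inconclusive = first-round hits that could not be retested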;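 note: growth measured after seven days incubation then overnight dye step; 0% = bacteria only wells and 100% = bacteria with antibiotic; twin plates without the antibiotic show which effects depend on it; some results filed as inactive read as strong as hits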
RecA intein inh: Mtb RecA intein splicing inhibition; 290,000 tested, 0.75% active; P9WHJ3; inhibition, %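 (about 9 µM by stock and volumes)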; cell-free RecA intein splicing, fluorescence; in the data active = inhibition above about 30%; inconclusive = no clear call, values can overlap the other calls;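 note: 0% = vehicle wells and 100% = reference inhibitor control wells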
Target sequence (P9WHJ3 whole entry, looked up): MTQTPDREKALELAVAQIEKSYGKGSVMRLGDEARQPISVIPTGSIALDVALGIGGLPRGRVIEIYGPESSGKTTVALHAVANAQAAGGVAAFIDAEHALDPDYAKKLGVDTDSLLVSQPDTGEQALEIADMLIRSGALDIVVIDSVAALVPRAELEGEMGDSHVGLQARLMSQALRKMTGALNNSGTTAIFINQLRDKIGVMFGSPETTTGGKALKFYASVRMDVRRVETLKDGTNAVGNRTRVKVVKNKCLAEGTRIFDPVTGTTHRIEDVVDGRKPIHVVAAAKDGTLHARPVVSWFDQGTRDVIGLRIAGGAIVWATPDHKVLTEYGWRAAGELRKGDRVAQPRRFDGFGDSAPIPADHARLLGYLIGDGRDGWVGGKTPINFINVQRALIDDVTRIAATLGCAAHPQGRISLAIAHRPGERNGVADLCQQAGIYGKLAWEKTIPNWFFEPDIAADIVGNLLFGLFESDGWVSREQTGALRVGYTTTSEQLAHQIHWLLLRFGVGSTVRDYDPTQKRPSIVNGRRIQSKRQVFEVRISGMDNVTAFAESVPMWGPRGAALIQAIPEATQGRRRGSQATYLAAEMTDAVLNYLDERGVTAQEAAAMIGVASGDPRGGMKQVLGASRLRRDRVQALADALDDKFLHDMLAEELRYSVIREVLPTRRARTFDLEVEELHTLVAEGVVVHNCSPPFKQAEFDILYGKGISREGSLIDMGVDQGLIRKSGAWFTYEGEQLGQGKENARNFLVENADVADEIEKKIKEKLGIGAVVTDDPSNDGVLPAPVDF
Arbovirus inh: antivirals against arbovirus infection; arbovirus infection cell-based antiviral screen; inhibition, % at 10 µM; 200,000 tested, 0.37% active; AID 1251;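 active = inhibition from about 30%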;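 note: bluetongue infection of BSR cells; cell survival read as ATP light after 72 h; 0% = infected wells without compound and 100% = uninfected wells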
Arbovirus inh repeat: recorded beside Arbovirus inh, whose call it bears; inhibition, %; measured here: 10K subset replicate screen; many hits read low in the repeat;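 first of two repeat runs on a subset; 0% = infected and 100% = uninfected wells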
The depositor's hits bear a star; ? = inconclusive; / = not tested or not shown.

SMILES	Mtb H37Rv	YopH inh	Mtb bLac sens	RecA intein inh	Arbovirus inh	others
CCc1nnc(NS(=O)(=O)c2ccc(N/C=C/C(=O)c3ccc(C)cc3)cc2)s1	2%	-4	53	-36	15
COc1ccccc1CNC(=O)c1ccc2nc(N3CCOCC3)sc2c1	/	/	-3	1.4	/
O=C(COC(=O)c1cc([N+](=O)[O-])ccc1Cl)NC1CCCC1	/	/	47	-1.2	/
CCN(C(=O)COC(=O)c1cccc(NS(=O)(=O)c2ccc(F)c(F)c2)c1)C1CCS(=O)(=O)C1 (stereo not drawn)	-2%	/	-4	-3.4	5
COc1ccc(NC(=O)CSc2n[nH]c(C(C)C)n2)c([N+](=O)[O-])c1	2%	/	-2	-1.2	4
CCC(=O)N(CCc1ccc(OC)c(OC)c1)Cc1cc2ccc(C)cc2n2nnnc12	0%	/	-5	-1.4	1
Cc1cc2cc3c(C)cc(=O)oc3c(C)c2o1	/	/	6	-3.2	/
COC(=O)c1ccc(C(=O)OC)c(NC(=O)CSCc2ccccc2Br)c1	-5%	-29	-5	3.4	1
Cc1n[nH]c(C)c1Sc1ccccc1N=Cc1cc(Cl)cc([N+](=O)[O-])c1O	-10%	-12	-6	1.5	1
CCC1CCCCN1Cc1nc2c(c(=O)n(C)c(=O)n2C)n1CCCc1ccccc1 (stereo not drawn)	7%	/	-4	8.4	/
COCCN1Cc2cccc(C(=O)Nc3ccccc3OC)c2C1=O	1%	-31	-8	2.4	3
COc1ccc(CN2CCC(Cc3ccccc3)CC2)cc1OC	/	/	-3	-6.3	/
Cn1nc(C(=O)Nc2nc3ccccc3[nH]2)c2ccccc2c1=O	10%	-55	11	-1.1	-20
O=C(O)CC/C(=N\Nc1ccc(S(=O)(=O)N2CCCC2)cc1[N+](=O)[O-])c1cccs1	2%	-6	/	/	0
O=C(O)C1C2C=CC(C2)C1C(=O)N1CCOCC1 (stereo not drawn)	-8%	-27	5	8.1	8
O=C(NC1CCCC1)c1ccccc1OCc1ccccc1	74%	/	/	8.2	-10
Cc1ccc(S(=O)(=O)N(Cc2cccc(C)c2)C(=O)N2CCN(C)CC2)cc1	/	/	-9	-0.4	/
Cc1cc2sc3ccc(C#CC4(O)CCCCC4)cc3c(=O)c2cc1C	3%	/	53	-2.4	/
COC(=O)c1ccc(/C=N/Nc2nc(C)c(C)s2)cc1	?	/	97	-1.9	/
Cc1ccccc1OCC(=O)N/N=C/c1ccc(N(C)C)cc1	4%	/	-7	-1.4	-8
COc1cc(CNC2CCCCC2OC)cc(OC)c1 (stereo not drawn)	0%	/	1	-0.7	8
O=C(O)COc1ccccc1/C=N/NC(=O)CSc1nc2ccccc2n1Cc1ccccc1	-2%	/	3	3.1	/
COc1ccccc1-n1cnnc1SCc1csc(-c2ccccc2)n1	4%	-2	-11	/	14
CCCCCCC(=O)N(O)C1CC(=O)N(Cc2ccccc2)C1=O (stereo not drawn)	3%	-25	2	-0.2	-7
CN(C)S(=O)(=O)c1ccc(C(=O)NC2CCCc3ccccc32)cc1 (stereo not drawn)	4%	/	-5	1.8	12
Cc1ccc(CSC2=Nc3ccccc3C3=NC(CCC(=O)NCc4ccco4)C(=O)N23)cc1 (stereo not drawn)	-3%	-19	-3	/	-3
COc1ccc(-c2nc(SCC(=O)NCc3ccco3)c(-c3ccccc3)[nH]2)cc1OC	-11%	-17	7	-2.5	0
Cc1ccc(C)c(-c2nnc(NC(=O)CCS(=O)(=O)c3ccc(F)cc3)o2)c1	/	/	-3	0.1	/
OCCNc1nc2nonc2nc1NCCO	2%	/	0	-0.6	4
O=S(=O)(c1cccc2nonc12)N1CCCCCC1	8%	/	-3	4.7	5
O=c1c2cc(-c3ccccc3)sc2nc2n1N=C(c1ccccc1)CS2	11%	/	-3	-2.0	/
CCN(CC(=O)Nc1ccc(NC(C)=O)cc1)CC(=O)Nc1ccccc1C(=O)c1ccccc1	3%	/	9	1.1	-3
C[C@H](/C=C/[C@@]1(O)[C@H](C)C[C@H](O)CC1(C)C)O[C@@H]1O[C@H](CO)[C@@H](O)[C@H](O)[C@H]1O	/	/	-6	0.5	/
O=C(O)C1C2C=CC(C2)C1C(=O)N1CCN(C/C=C/c2ccccc2)CC1 (stereo not drawn)	/	-16	-7	-0.5	2
COCCCNC(=O)COc1ccc(S(=O)(=O)NCc2ccccc2)cc1Cl	11%	0	13	2.4	13
CCC(CC)NC(=O)COC(=O)c1ccc2c(c1)C(=O)N(Cc1ccco1)C2=O	/	/	-4	-0.4	/
Cc1cc(C)c2nc(-c3ccccn3)cc(C(=O)NCCc3ccc(S(N)(=O)=O)cc3)c2c1	-2%	/	0	6.2	-8
CC(C)(C)[C@H]1C=C(C(=O)N2CCN(Cc3ccc4c(c3)OCO4)CC2)O[C@@H](OCCCCO)C1	-1%	/	-3	-1.2	-5
CCc1nc(SCC(=O)NCCc2ccc(OC)c(OC)c2)c2c(=O)n(C)c(=O)n(C)c2n1	8%	-40	0	1.4	3
COc1ccc2c(c1)[nH]c1c(N3CCN(Cc4ccc5c(c4)OCO5)CC3)ncnc12	5%	-11	84	0.3	-25	Arbovirus inh repeat=-12
CC1=C(C(=O)OCc2ccc([N+](=O)[O-])cc2)N2C(=O)C(NC(=O)Cc3ccccc3)C2SC1 (stereo not drawn)	/	/	-2	-4.6	/
Cn1cnnc1SC1CCCCC1NS(=O)(=O)c1ccc(Cl)cc1 (stereo not drawn)	-7%	-13	-3	-4.6	0
COc1cc(C2Nc3ccccc3C(=O)N2c2ccccc2)ccc1O (stereo not drawn)	-3%	-5	-4	-0.1	-11
COc1ccc(OC)c(NC(=O)C2=C(C)NC(=O)NC2c2cccs2)c1 (stereo not drawn)	3%	/	10	-2.4	17
O=C(CCc1nnc2ccc(NCc3ccccc3)nn12)NC1CCCC1	/	/	1	0.8	/

By substructure: the compounds so far containing a nitro group on carbon.
SMILES	Mtb H37Rv	YopH inh	Mtb bLac sens	RecA intein inh	Arbovirus inh	others
O=C(COC(=O)c1cc([N+](=O)[O-])ccc1Cl)NC1CCCC1	/	/	47	-1.2	/
COc1ccc(NC(=O)CSc2n[nH]c(C(C)C)n2)c([N+](=O)[O-])c1	2%	/	-2	-1.2	4
Cc1n[nH]c(C)c1Sc1ccccc1N=Cc1cc(Cl)cc([N+](=O)[O-])c1O	-10%	-12	-6	1.5	1
O=C(O)CC/C(=N\Nc1ccc(S(=O)(=O)N2CCCC2)cc1[N+](=O)[O-])c1cccs1	2%	-6	/	/	0
CC1=C(C(=O)OCc2ccc([N+](=O)[O-])cc2)N2C(=O)C(NC(=O)Cc3ccccc3)C2SC1 (stereo not drawn)	/	/	-2	-4.6	/

(continued)
SMILES	Mtb H37Rv	YopH inh	Mtb bLac sens	RecA intein inh	Arbovirus inh	others
COc1ccc(NC(=S)NCCCN2CCOCC2)cc1	0%	/	-7	3.9	/
CCOC(=O)CSc1nc(N)nc(C)c1Br	-5%	-30	-8	1.7	-3	Arbovirus inh repeat=2
COC1CCN(C(=O)c2cc(COc3ccc(-n4cncn4)cc3)on2)CC1	/	/	1	-1.2	/
O=c1c(Cc2ccc(F)cc2)c(O)ccn1CC1CCCO1 (stereo not drawn)	1%	/	-1	-2.5	8
NS(=O)(=O)c1ccc(CNC(=S)Nc2ccc(F)c(Cl)c2)cc1	8%	/	2	0.2	5
COc1cccc(/C=C/C(=O)OCC(=O)NCCC2=CCCCC2)c1	41%	/	73	1.0	0
BrC(=C\c1ccccc1)/C=N/N1CCN(Cc2ccccc2)CC1	8%	-22	2	5.4	-8
C(=N\Nc1nc2ccccc2s1)/c1cccs1	13%	-4	81	1.9	18
N#CCSc1nnc(Cc2cccs2)n1C1CCCCC1	4%	-33	-11	0.3	3
COc1cc(S(=O)(=O)Nc2cc(C)cc(C)c2)ccc1F	3%	-23	-8	-2.9	3
CC(CCc1ccccc1)NC(=O)CNC(=O)COc1ccccc1 (stereo not drawn)	-3%	/	-3	-0.5	3
Cc1cc(C(=O)COC(=O)CNC(=O)c2ccc(Cl)c(Cl)c2)c(C)n1Cc1ccco1	1%	-18	2	-0.1	-1
CC(=O)c1ccc2oc3ccccc3c(=O)c2c1	/	/	4	-2.4	/
Cc1cc(/C=C(\C#N)C(=O)NCCc2c[nH]c3ccccc23)c(C)n1C	0%	-29	-1	-5.0	4
CCCNC(=O)c1nn2cc(Br)cnc2c1Br	-5%	/	0	1.9	2
Cc1cccc(NC(=O)c2cc(-c3cc(C)cc(C)c3O)n[nH]2)c1	/	/	2	-1.7	/
O=[N+]([O-])c1ccc(S(=O)(=O)N2CCN=C2SCc2cccnc2)cc1	-6%	/	0	2.0	2
CC1(C)Cc2ccccc2-c2nnc(SCC(=O)N3CCc4ccccc43)n21	-9%	-19	3	-2.1	-15
COc1c(C)cc(Br)cc1C(=O)Nc1ccc(Cc2ccncc2)cc1	-7%	/	36	9.2	-30
CCOC(=O)N1CCC(NC(=O)Cn2cccc2C(=O)c2ccccc2)CC1	-12%	-8	2	-1.4	2
CCCC(=O)NC(=S)Nc1ccc(NC(=O)C(C)C)c(OC)c1	9%	-18	6	-1.4	4
COCCN(C(=O)COC(=O)c1oc2ccc(OC)cc2c1C)c1c(N)n(Cc2ccccc2)c(=O)[nH]c1=O	/	/	-11	-2.2	/
CC(C)Cn1c2c(c(O)c(C(=O)Nc3nccs3)c1=O)CCCC2	/	-36	/	0.8	37*
O=C(Nc1cccc(F)c1)C1CCCN(S(=O)(=O)c2cnc[nH]2)C1 (stereo not drawn)	/	/	-6	-5.5	/
O=C(O)CCN1C(=O)C2C3C=CC(C3)C2C1=O (stereo not drawn)	-9%	-16	-11	-0.8	3
Cc1ccccc1/C=C\c1nc2ccccc2c(=O)n1Cc1ccccc1	8%	-19	4	2.0	14
C#CCOCCOCCOCCNc1nc(N2CCN(C(=O)C([C@@H](C)CC)n3cc(C(N)CO)nn3)CC2)nc(N2CCN(C(=O)[C@H](CCC(=O)O)n3cc(C(N)[C@H](C)CC)nn3)CC2)n1 (stereo partly drawn)	-15%	/	/	0.6	/
CCOc1ccccc1N(CC(=O)NC1CCCCC1)S(=O)(=O)c1ccc(C)cc1	/	/	-2	-0.1	/
O=C(COC(=O)CN1C(=O)C2CCCCC2C1=O)NNC(=O)c1ccc(Cl)cc1 (stereo not drawn)	/	/	-12	0.8	/
C/C(CCN1CCCCc2nc(C)c(C)cc21)=N\O[C@@H](C)c1cn([C@H](CO)Cc2ccccc2)nn1	-2%	-26	/	/	18
O=C(Cc1ccccc1)Nc1c(C(=O)N2CCCCCC2)cnn1-c1ccccc1	-2%	-26	1	/	-6
Cc1ccccc1NC(=O)CSc1nnc(-c2ccco2)c(-c2ccco2)n1	-10%	-31	8	12	-10
NC(=O)c1nsc(C(=O)N(c2ccc(F)cc2)C(C(=O)NCC2CCCO2)c2c[nH]c3ccccc23)c1N (stereo not drawn)	/	/	-4	0.8	/
Cc1ccc(-c2nnn(CC(=O)N(Cc3ccco3)C(C(=O)NC(C)(C)C)c3ccncc3)n2)o1 (stereo not drawn)	-5%	/	9	2.1	8
CC(C)(C)N1C(=O)c2ccc(C(=O)Nc3ccc(O)cc3)cc2C1=O	/	/	20	1.6	/
O=C(Oc1cccc(NC(=O)c2cccs2)c1)c1cccc(S(=O)(=O)N2CCCC2)c1	2%	-27	5	2.1	0
CCCN1CCN(C(=O)Nc2cccc(C(F)(F)F)c2)CC1	4%	/	1	0.6	5
COc1ccc(-n2c(N)c(C(=O)NCc3cccnc3)sc2=S)cc1	-9%	-12	3	-2.2	4
N#C/C(=C\Nc1ccc(Cl)cc1)S(=O)(=O)c1ccccn1	-6%	/	-5	-2.5	/
O=P(/C(=N/O)N1CCCCC1)(N1CCOCC1)N1CCOCC1	-1%	-31	-3	5.6	-5
O=c1[nH]c2cc3c(cc2cc1CN(CCN1CCOCC1)C(=S)NCC1CCCO1)OCO3 (stereo not drawn)	-3%	/	13	-3.8	-2
COc1ccc(-n2c(N3CCN(C)CC3)nc3sc4c(c3c2=O)CCCCC4)cc1	23%	-20	2	1.9	-18
O=C(COc1ccccc1)Nc1ccccc1C(=O)NCc1ccco1	5%	-7	-2	3.8	9
O=C(c1cc2nc(C3CC3)cc(C(F)(F)F)n2n1)N1CCCC1	3%	-13	0	5.4	-2

Sorted by SMILES length (highest first): part of the list above
SMILES	Mtb H37Rv	YopH inh	Mtb bLac sens	RecA intein inh	Arbovirus inh	others
O=C(Oc1cccc(NC(=O)c2cccs2)c1)c1cccc(S(=O)(=O)N2CCCC2)c1	2%	-27	5	2.1	0
N#C/C(=C\Nc1ccc(Cl)cc1)S(=O)(=O)c1ccccn1	-6%	/	-5	-2.5	/
CCCN1CCN(C(=O)Nc2cccc(C(F)(F)F)c2)CC1	4%	/	1	0.6	5

This is a subset, so the mix of outcomes need not match the whole.
